# Screening data from PubChem BioAssay.
# NPYLR7 agonist – agonists of mosquito NPYLR7 receptor, primary screen, cell-based, Aedes aegypti, calcium fluorescence, mosquito biting behavior; Aedes aegypti neuropeptide Y-like receptor 7 (NPYLR7); HEK293T NPYLR7/Galpha15, GCaMP6s calcium fluorescence; activation, % at 10 µM; 270,000 tested, 0.15% active; in the data active = activation above about 40%;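 note: 0% = vehicle and 100% = reference agonist at the receptor; some compounds past the cut are filed as inactive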
# NPYLR7 agonist max-min – further read-out of NPYLR7 agonist, marked with its call; activation, %; measured here: Max-Min RFU normalised activation; some inactives read as strong as hits;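 span of the calcium signal over five minutes; 0% = vehicle and 100% = native peptide agonist; compound fluorescence can raise it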
# * hit, by the source's call; & = joins results of further samples. This is a subset; the hit share may differ from the screen's.
SMILES	NPYLR7 agonist max-min	NPYLR7 agonist
Cc1ccc(C(C)NC(=O)C(=O)Nc2ccc(CC(=O)N(C)C)cc2)o1 (stereo not drawn)	-5	-4
Cn1c(NC2=NCCCCC2)c(Br)c(=O)n(C)c1=O	-3	0
O=C(O)/C=C/C(=O)NNC(=O)c1cc(O)cc(O)c1	-13	-7
CC(C)CNC(=O)NC(=O)COC(=O)CNC(=O)c1ccc(Br)o1	5	11
CCCCCN(CC(=O)N1CCc2sccc2C1c1ccccc1C)C(=O)C(c1ccccc1)c1ccccc1 (stereo not drawn)	13	9
NC1=NC(=O)/C(=C/c2ccccc2C(F)(F)F)S1	-8	-1
CCN(C)c1nc(C)nc2c1CN(C(=O)c1ccc(C(F)(F)F)cc1)CC2	1	0
Cn1cc(C(=O)N2CCCC(CCc3ccc(F)cc3)C2)cn1 (stereo not drawn)	4	7
COc1cccc(CC2(CO)CCCN(Cc3ccc(SC)cc3)C2)c1 (stereo not drawn)	-13	-2
CC(C)SC(NC(=O)OCc1ccccc1)C(=O)NCC1COc2ccccc2O1 (stereo not drawn)	-13	-8
CC(Cn1ccnc1)NCc1cccnc1N1CCN(c2ccccn2)CC1 (stereo not drawn)	-1	5
C=C1CCC[C@]2(C)C[C@H]3OC(=O)[C@H](CNCCc4ccccc4OC)C3CC12 (stereo partly drawn)	2	2
c1ccc(-c2nccc3n[nH]c(C4CC4)c23)cc1	2	2
Cc1ccc2nc(-c3ccc(C(F)(F)F)cc3)c(NC3CCCCC3)n2c1	-2	-8
O=C(Nc1cccc(-c2cscn2)c1)C1CCN(Cc2ccc(CO)o2)CC1	0	9
CC(C)(C)c1ccc(S(=O)(=O)Nc2nccnc2-c2ccc(CNCCc3ccccn3)cc2)cc1	28	-2
COCCn1cnnc1SC(C)C(=O)c1ccc(CCNC(C)=O)cc1 (stereo not drawn)	-7	-3
CC(Nc1cccc(Br)c1)C(=O)N/N=C\c1ccncc1 (stereo not drawn)	-5	-2
Cc1ccc2c(c1)CCN1C(=O)CN(C(=O)Nc3cccc(Oc4ccccc4)c3)CC21 (stereo not drawn)	13	25
O=C1N(Cc2c(F)cccc2F)c2ccccc2C12NCCS2 (stereo not drawn)	34	29
COc1ccc(CN2CCN(C3CCN(C(C)=O)CC3)CC2CCO)cc1C (stereo not drawn)	9	13
O=C1CSC(c2ccc3c(c2)OCO3)N1c1ccc(Br)cc1 (stereo not drawn)	-14	-9
O=C1C(=O)N(CCCn2ccnc2)C(c2cccc([N+](=O)[O-])c2)C1=C(O)c1ccc(F)cc1 (stereo not drawn)	6	7
COc1ccc(C=C2C(=O)NC(=S)NC2=O)cc1[N+](=O)[O-]	-3	-3
Cc1ccc(C(NC(=O)c2cccc3ccnn23)c2ccncc2)cc1 (stereo not drawn)	-6	-3
O=C(c1ccc(NCCc2ncc[nH]2)nc1)N1CCC(Cn2cccn2)CC1	-11	-3
O=C(Nc1ccc2c(c1)OCO2)N1CCN(c2ccc3nncn3n2)CC1	8	2
COC(=O)NN=C1CC(C)CC(C)(C)C1 (stereo not drawn)	-5	-1
Cc1ccc(NC(=O)Nc2c(C)nc3c(C)cccn3c2=O)c(C)c1	-3	-3
O=C(Nc1ccccc1Br)c1cc2ccccc2oc1=O	-18	-9
CCN(CC)C(=O)[C@@H]1C[C@H](N)CN1S(=O)(=O)c1ccc(OC)c(F)c1	-6	11
O=C(CSc1nc2ccccc2s1)Nc1nc2ccccc2s1	-11	-6
Cc1ccsc1CN(C)C(=O)c1cccc(OC2CCN(C(=O)C3CC3)CC2)c1	-4	-6
COc1cc(CN2CCCC(C(=O)c3cccc(C(F)(F)F)c3)C2)cc2c1OCO2 (stereo not drawn)	-19	-22
CCCC(=Nc1ccccc1O)C1=C(O)CC(CC(C)SCC)CC1=O (stereo not drawn)	7	-6
CC(C)c1ccc(CC(=O)N2CCC2(C)C(=O)Nc2cnc3ccccc3c2)cc1 (stereo not drawn)	2	5
C=C(C)Cn1cnc(-c2ccccc2)c1-c1c(C)n(C)n(-c2ccccc2)c1=O	-9	-4
CC1CN(S(=O)(=O)c2ccc(NC(=O)COc3ccc(F)cc3Cl)cc2)CC(C)O1 (stereo not drawn)	3	4
COc1ccc(N2CCN(C(=O)CC(C)(C)C)C(C)C2=O)cc1 (stereo not drawn)	1	3
Brc1cccc(C2=Nn3c(nnc3-c3cccnc3)SC2)c1	13	9
O=S(=O)(NC1=NCCCCC1)c1ccc(F)cc1F	6	8
N#Cc1nccnc1Oc1ccc2[nH]ncc2c1	1	2
CCOc1ccc(C(C2Sc3nc(C)nn3C2=O)N2CCC(C(N)=O)CC2)cc1OC (stereo not drawn)	-12	-5
Cc1ccc(NC(=O)N2CCC3(CC2)SCCN3C(=O)c2ccccc2Cl)cc1Cl	7	-5
CN(C)C(=O)N1CCC2(CC1)SCCN2C(=O)c1ccc(C(F)(F)F)cc1	8	4
COc1ccc(-n2nc(-c3ccc(C)o3)cc2C(=O)N2CCN(c3cccc(C(F)(F)F)c3)CC2)cc1	9	12
COc1ccc(CN(C(=O)c2cc(Br)ccc2F)C2CC2)c(OC)c1	-6	-4
Cc1ccccc1C1CN(C(=O)CCC2CCCO2)C(C)CO1 (stereo not drawn)	-3	-2
NCCNc1ccc2c3c(cccc13)C(=O)N(c1ccc(Cl)cc1)C2=O	107*	104*
O=c1c2sccc2nc(SCCc2ccccn2)n1-c1ccccc1	50	-1

# Shown with two lines to a compound: entries from further up.
# Value order – NPYLR7 agonist max-min | NPYLR7 agonist
> O=C(Nc1ccccc1Br)c1cc2ccccc2oc1=O
  -18 | -9
> CCN(CC)C(=O)[C@@H]1C[C@H](N)CN1S(=O)(=O)c1ccc(OC)c(F)c1
  -6 | 11
> O=C(CSc1nc2ccccc2s1)Nc1nc2ccccc2s1
  -11 | -6
> Cc1ccsc1CN(C)C(=O)c1cccc(OC2CCN(C(=O)C3CC3)CC2)c1
  -4 | -6
> COc1cc(CN2CCCC(C(=O)c3cccc(C(F)(F)F)c3)C2)cc2c1OCO2 (stereo not drawn)
  -19 | -22
> CCCC(=Nc1ccccc1O)C1=C(O)CC(CC(C)SCC)CC1=O (stereo not drawn)
  7 | -6
> CC(C)c1ccc(CC(=O)N2CCC2(C)C(=O)Nc2cnc3ccccc3c2)cc1 (stereo not drawn)
  2 | 5
> C=C(C)Cn1cnc(-c2ccccc2)c1-c1c(C)n(C)n(-c2ccccc2)c1=O
  -9 | -4
> CC1CN(S(=O)(=O)c2ccc(NC(=O)COc3ccc(F)cc3Cl)cc2)CC(C)O1 (stereo not drawn)
  3 | 4
> COc1ccc(N2CCN(C(=O)CC(C)(C)C)C(C)C2=O)cc1 (stereo not drawn)
  1 | 3
> Brc1cccc(C2=Nn3c(nnc3-c3cccnc3)SC2)c1
  13 | 9
> O=S(=O)(NC1=NCCCCC1)c1ccc(F)cc1F
  6 | 8
> N#Cc1nccnc1Oc1ccc2[nH]ncc2c1
  1 | 2
> CCOc1ccc(C(C2Sc3nc(C)nn3C2=O)N2CCC(C(N)=O)CC2)cc1OC (stereo not drawn)
  -12 | -5
> Cc1ccc(NC(=O)N2CCC3(CC2)SCCN3C(=O)c2ccccc2Cl)cc1Cl
  7 | -5
> CN(C)C(=O)N1CCC2(CC1)SCCN2C(=O)c1ccc(C(F)(F)F)cc1
  8 | 4
> COc1ccc(-n2nc(-c3ccc(C)o3)cc2C(=O)N2CCN(c3cccc(C(F)(F)F)c3)CC2)cc1
  9 | 12

# (further entries)
SMILES	NPYLR7 agonist max-min	NPYLR7 agonist
COCCNC(=O)CSc1nnc(N2CCN(C(C)=O)CC2)s1	-16	-7
O=C(Nc1nc(OCC(F)(F)F)cnc1/C=C\c1ccccc1)c1ccccc1	-4	-2
COc1cccc(C(=O)N2CCC3(CC2)OCC(C(=O)NCc2ccncc2)N3C(=O)c2cccc(C)c2)c1 (stereo not drawn)	3	0
O=C(Nc1ccc(-c2onc3c2CCc2ccccc2-3)cc1)C1=Cc2cc(Cl)ccc2OC1	1	2
CCOC(=O)N1CCN(C(=O)CCCCn2c(=S)[nH]c3c([nH]c4ccc(OC)cc43)c2=O)CC1	-11	-6
O=S(=O)(NCc1ccccn1)c1cccc2c(S(=O)(=O)NCc3ccccn3)cccc12	-3	-5
Cc1nc(S(=O)(=O)N2CCC(C(=O)NCc3ccn[nH]3)CC2)cn1C	16	-5
Cc1cc(N2CCC(C)CC2)n2nc(C)c(-c3ccccc3)c2n1	-1	2
O=C(c1cc(C(F)(F)F)cc(C(F)(F)F)c1)N1CCC(c2nc(-c3ccc(F)c(F)c3)no2)CC1	-4	3
COC(=O)C1=C(C)NC(C)=C(C(=O)OC)C1c1ccc(Cl)cc1Cl	8&-1	10&-2
Cc1ccnc(NC2CC(=O)N(CCc3cccc(Cl)c3)C2)n1 (stereo not drawn)	-8	-5
Cc1c(C)n2c3c(=O)n(Cc4ccc(Cl)cc4)c(=O)n(C)c3nc2n1Cc1ccco1	17	14
CCn1c(SCCO)nc2sc(C)c(-c3ccc(F)cc3)c2c1=O	-3	-3
COC(=O)[C@@H]1Cc2nc[nH]c2CN1Cc1ccc([N+](=O)[O-])cc1	-14	-7
COc1cc2ccccc2cc1C(=O)N(CCN(C)C)c1nc2c(F)cccc2s1	-5	-3
Cc1cccc(CNC(=O)N2CCC3(CCCN(C)C3=O)C2)c1 (stereo not drawn)	12	17
CNC(=O)c1ccc(N(C)Cc2ccc(Cl)s2)nc1	1	3
CSCC[C@H](NC(C)=O)C(=O)Nc1cnc2n1CCCC2	12	11
O=C(CC1CCS(=O)(=O)C1)Nc1cc(F)c(F)cc1F (stereo not drawn)	12	19
COC(=O)c1ccccc1S(=O)(=O)Nc1ccccc1OC(F)F	0	1
CCCCC(CC)C(=O)Nc1cccc(C2SCC(=O)N2c2cccc(CC)c2)c1 (stereo not drawn)	3	-6
Clc1ccc(-c2cn3c(n2)-c2ccccc2C3)cc1	-6	-5
Brc1ccsc1/C=C/c1cccs1	-5	-4
COc1ccc2[nH]c(C(=O)N3CCN(c4ncnc5c4CN(Cc4ccccc4)CC5)CC3)cc2c1	-2	-1
Cc1ccc(-n2c(SCc3ccccc3C)nnc2C(C)NC(=O)c2cccc(Br)c2)cc1 (stereo not drawn)	24	22
Cc1cnc(NC(=O)C2=NN(c3ccc(C)c(Cl)c3)C(=O)CC2)s1	2	3
COc1ccc(F)c(CC2(CCC(=O)N3CC4(C)CC3CC(C)(C)C4)CCC(=O)N2)c1 (stereo not drawn)	-2	2
COc1cccc(-c2nc(C=Nc3nc4ccccc4s3)c(O)o2)c1	18	19
O=C(COc1ccccc1C(F)(F)F)Nc1ccn(-c2ccncc2)n1	5	-3
COc1cccc(-n2cc(CN(C)Cc3cnn(C)c3)cn2)c1	3	3
COc1ccccc1C(=O)Nc1cccc(C2SCC(=O)N2c2ccc(C)c(F)c2)c1 (stereo not drawn)	14	13
Cc1cc(C)c(S(=O)(=O)N2CCN(c3nc(C)nc(C)c3Cc3ccccc3F)CC2)c(C)c1	8	5
C=CCN(Cc1ccccc1F)C(=O)c1cc(S(=O)(=O)NC)cn1C	-1	-1
COc1ccc(-n2c(CCC(=O)NCCCOC(C)C)cc3c2-c2ccccc2CC3)cc1	-3	-1
O=c1[nH]c2cc3nc(C(F)(F)C(F)(F)F)[nH]c3cc2[nH]1	-2	2
COCCOC(=O)C1=C(C)NC2=C(C(=O)CC(c3ccccc3)C2)C1c1ccc(Br)cc1 (stereo not drawn)	-18	-14
Cc1ccc(C(=O)Nc2nc(-c3cc4cc(Cl)ccc4oc3=O)cs2)cc1	-9	-3
O=[N+]([O-])c1cccc(/C=N\Nc2nc(Nc3ccc(Cl)cc3)nc(N3CCOCC3)n2)c1O	-10	-1
CCOC(=O)c1cc([C@@H](C)CCC=C(C)C)sc1NC(=O)c1cccc(OC(C)=O)c1C	1	-1
COCC(=O)N(Cc1cccc(OS(=O)(=O)c2ccc(OC)cc2)c1)C1CC1	-9	-11
Cc1nc(C(F)(F)F)nc(-c2ccc(S(C)(=O)=O)cc2)c1C	7	17
Cc1ccc(C(=O)Nc2ccc(F)cc2)cc1S(=O)(=O)N1CCOCC1	-11	-5
Cc1noc(C)c1C(=O)N1CCC(n2nccc2NC(=O)CCOc2ccccc2)CC1	-1	-1
CS(=O)(=O)CCN1CCN(C(=O)CSc2ccccc2)CC1	8	8
O=C(CCCN=C1NS(=O)(=O)c2ccccc21)NCCSc1ccc(Cl)cc1	2	4
COc1ccc(OC)c(-n2c(-c3ccccc3)cc(C(=O)N3CCC(Cc4ccccc4)CC3)c2C)c1	1	-1
O=C(NCC1CCCO1)Nc1cc(F)ccc1-n1cccn1 (stereo not drawn)	0	4
C=C(C)C(O)(C(=C)C)c1ccc(CN(CCCOC)Cc2ccc(OC)cc2)o1	2	-3
CCN(CC)c1nc(C)nc2sc(C(=O)O)c(C)c12	0	4
CC(C)=NNC(=S)NC(C)(C)C	2	-1

# Next section:
SMILES	NPYLR7 agonist max-min	NPYLR7 agonist
COc1ccc(CC2(CCC(=O)N3CCN(c4cccc(C)c4C)CC3)CCC(=O)N2)cc1OC (stereo not drawn)	10	18
O=C(Cn1nc2ccc(SC3CCCCC3)nn2c1=O)Nc1ccc(F)cc1	-6	-1
Nc1nc(NC2CCCCC2)nc(NCc2ccco2)c1[N+](=O)[O-]	1	0
CC1CCN(c2nc3c(c(=O)[nH]c(=O)n3C)n2CCSc2nc3ccccc3s2)CC1	12	1
O=C(c1ccc(CSc2ncn[nH]2)o1)N1CC(c2cccnc2)C1	-2	2
CC(Oc1ccc(C#N)cc1)C(=O)NN1C(C)CCCC1C (stereo not drawn)	-2	-4
